Compound activity from PubChem BioAssay.
Sa ugtP lethal = kills S. aureus RN4220 lacking UgtP; S. aureus RN4220 ugtP deletion, OD600 growth, 16 h; some inactives read as strong as hits; 0.54% of 330,000 active; AID 1259309; growth inhibition, % (no concentration beside the values);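 active = z-score under -3 and OD600 up to 0.15 on both plates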;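 also: plate controls were untreated wells for no effect and antibiotic for full effect; wells of about 80 µL received 100 nL stock; the first replicate is given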
Mtb hypoxia rep = Mtb hypoxia fluorescent reporter inhibition. M. tuberculosis hypoxia-regulated fluorescent reporter, fluorescence. fluorescence inhibition, % (test concentration not listed). 0.1% of 300,000 active;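 active = 35 to 45% if threefold the growth effect, above 45% if 1.5-fold the growth effect; inactive = the rest, general growth blockers included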;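 also: wells of about 50 µL received 100 nL stock; 0% = vehicle wells and 100% = reference inhibitor wells; whole bacteria with a GFP reporter of the hypoxia response; strong numbers were not always called active; many hits fall short of the cut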
Autofluor counter = flagged as autofluorescent in microsphere protease counterscreen; compound autofluorescence counterscreen, microsphere flow cytometry; active compounds read high; fluorescence intensity (test concentration not listed); 3.1% of 360,000 active;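 active = at least 3 SD above the mean of all compounds, about 16000 in these data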;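 also: 100 nL of 1 mM stock went into each well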
BJeLR viability = BJeLR cell viability loss; BJeLR (HRASV12) viability, CellTiter-Glo ATP luminescence, 48 h; reference of the scale not given here; inhibition, % (concentration not given with the values); 0.17% of 300,000 active; AID 1554;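 active = replicate mean above 50%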;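 also: 50 nL library stock added to about 25 µL; numbers are from one replicate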
PrP UTR inh = suppresses PrP 5' UTR mRNA reporter expression. cell-based PrP 5' UTR mRNA reporter, plate reader. inhibition, % (test concentration not listed). 0.35% of 340,000 active;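 active = every replicate at 50% or more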;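 also: 0 = median of the neutral control wells; tested in H4 reporter cells; numbers are from one replicate; inactives centre near -14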
RN4220 kill = kills Staphylococcus aureus RN4220; S. aureus RN4220 growth, OD600, 16 h; inhibition, % (test concentration not listed); 0.33% of 330,000 active;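 active = z-score of -3 or lower and OD600 up to 0.18 on both plates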;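 also: plate controls were untreated cells for no effect and reference antibiotic for full effect; stock transfer was 100 nL into about 80 µL; one replicate is shown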
Mtb hypoxia rep growth = also measured in Mtb hypoxia rep; calls as there; growth inhibition, %; measured here: M. tuberculosis growth (absorbance);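 0% = vehicle and 100% = reference antibiotic; read after six days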
* hit, by the source's call; x = no result given.

molecule,Sa ugtP lethal,Mtb hypoxia rep,Mtb hypoxia rep growth,Autofluor counter,BJeLR viability,PrP UTR inh,RN4220 kill
CCS(=O)(=O)CCSc1nc2c(cc1C#N)CCCC2,4,-1,5,13447,-10,-9,4.5
O=C(c1ccc2c(=O)n(C3CCCC3)c(=S)[nH]c2c1)N1CCN(C2CCCCC2)CC1,-11,1,5,10414,2,-28,-5.1
Cc1ccccc1-c1nc(CS(=O)(=O)CC(=O)N2CCc3ccccc3C2)c(C)o1,8,x,x,6162,-1,-14,3.5
CC(C)c1ccc(C(C(=O)NC2CCCCC2)N(C(=O)c2csnn2)C2CC2)cc1 (stereo not drawn),-2,-5,-3,4871,-14,9,6.5
COC(=O)[C@@H](NC(=O)NCc1cccs1)C(C)C,-4,-6,4,18068*,5,-13,0.9
NC(=S)NN=Cc1coc2ccccc2c1=O,-1,0,-5,x,x,x,2.1
CC(=O)Nc1c(C(=O)N2CCCCCC2)cnn1-c1ccccc1,-2,x,x,2270,2,-33,3.6
CC(=O)Nc1ccc(CN2CCCC(CCC(=O)NCc3ccccc3F)C2)cc1 (stereo not drawn),7,8,7,5161,8,80*,4.2
COc1ccc(F)cc1S(=O)(=O)N1CCCN(S(=O)(=O)c2cc(F)ccc2OC)CC1,3,12,5,4118,2,-3,5.4
COc1ccc(-c2cc(C3C4C=CCC[C@@]4(C)C(=O)N3Cc3ccccc3)ccc2F)cc1OC (stereo partly drawn),-2,-4,9,x,x,x,-2.6
COc1ccccc1OCc1ccc(C(=O)N2CCN(C)CC2)o1,7,3,6,11510,-2,-47,7.3
CNC(=O)Oc1ccc2ncccc2c1,3,3,0,2473,-6,-4,1.5
Cc1c(C(=O)O)sc2nc3n(c(=O)c12)CCC3,10,6,0,4627,-4,-9,5.5
COc1ccc(CN2CCCC(C(=O)c3ccc(SC)cc3)C2)cc1Cn1cccn1 (stereo not drawn),x,x,x,5624,11,-17,x
COc1cccc(C(=O)COC(=O)C(C)N2C(=O)C3C4C=CC(C4)C3C2=O)c1 (stereo not drawn),-16,x,x,5567,-4,-9,4.7
CCN1CCSc2ccc(C(=O)Nc3ccc(NC(C)=O)cc3)cc21,-10,4,-1,2121,-2,-12,0.6
CCOC(=O)c1cn(Cc2ccccc2)c(C(=O)OC(C)(C)C)c1O,-3,19,3,4167,8,-14,-8.4
O=C(O)c1ccc2c(c1)C(=O)N(c1nccs1)C2=O,1,11,-3,x,-6,-20,2.2
COc1ccc(CCNC(=O)C(C)SCC(=O)Nc2ccc(F)cc2)cc1 (stereo not drawn),0,2,9,4014,x,-8,1.2
CSc1ccccc1OCc1cc(C(=O)N(C)C2CCCc3ccccc32)no1 (stereo not drawn),-12,5,10,5437,-1,-18,4.6

Exported as labelled records: entries from further up
NC(=S)NN=Cc1coc2ccccc2c1=O
  Sa ugtP lethal = -1	Mtb hypoxia rep = 0	Mtb hypoxia rep growth = -5	Autofluor counter = x	BJeLR viability = x	PrP UTR inh = x	RN4220 kill = 2.1
CCS(=O)(=O)CCSc1nc2c(cc1C#N)CCCC2
  Sa ugtP lethal = 4	Mtb hypoxia rep = -1	Mtb hypoxia rep growth = 5	Autofluor counter = 13447	BJeLR viability = -10	PrP UTR inh = -9	RN4220 kill = 4.5
CCOC(=O)c1cn(Cc2ccccc2)c(C(=O)OC(C)(C)C)c1O
  Sa ugtP lethal = -3	Mtb hypoxia rep = 19	Mtb hypoxia rep growth = 3	Autofluor counter = 4167	BJeLR viability = 8	PrP UTR inh = -14	RN4220 kill = -8.4
CC(C)c1ccc(C(C(=O)NC2CCCCC2)N(C(=O)c2csnn2)C2CC2)cc1 (stereo not drawn)
  Sa ugtP lethal = -2	Mtb hypoxia rep = -5	Mtb hypoxia rep growth = -3	Autofluor counter = 4871	BJeLR viability = -14	PrP UTR inh = 9	RN4220 kill = 6.5

(listing goes on)
molecule,Sa ugtP lethal,Mtb hypoxia rep,Mtb hypoxia rep growth,Autofluor counter,BJeLR viability,PrP UTR inh,RN4220 kill
O=C(NCc1ccc2[nH]c3c(c2c1)CCCC3)c1ccc(S(=O)(=O)N2CCCCC2)cc1,5,4,2,4871,8,0,2.6
COCCNC(=O)CN1C(=O)CC(C)(C)S(=O)(=O)c2ccccc21,11,x,x,6282,-9,-4,3.7
COc1cccc(N2CN(C3CCCCC3)CNC2=S)c1,0,10,16,3651,-7,-12,-1.1
CC(C)n1cc(CN2CCC(n3nccc3NC(=O)Cc3ccccc3)CC2)cn1,-2,-2,0,5671,2,-5,0.4
COc1cccc(C(=O)NN2C(=O)C3C4C=CC(O4)C3C2=O)c1 (stereo not drawn),-2,2,6,2379,-1,-7,-1.9
CN1C2CCC1CC(OC(=O)CCN1CCCC1)C2 (stereo not drawn),10,8,2,7848,15,-16,3.1
O=[N+]([O-])c1ccc(C=NN2CCCCC2)cc1,-6,6,2,x,x,x,12
CCCCC(=O)NCCc1cc2c(C)ccc(C)c2[nH]c1=O,4,4,10,4030,-3,-17,3.2
Cn1c(Cn2c(=O)sc3ccccc32)nnc1SCC(=O)N1CCCc2ccccc21,5,x,x,5490,x,-9,2.8
COc1ccc(-c2cn3c(C)c(C(=O)Nc4cc(NC(C)=O)ccc4OC)sc3n2)cc1,-16,-3,1,9852,-1,-32,0.5
Nc1cc(=O)[nH]c(SCCSc2ccccc2)n1,6,0,2,3211,-2,-18,3.8
O=C1C(Cl)=C(NCCCN2CCOCC2)C(=O)c2ccccc21,2,16,8,3851,x,-22,23
COc1ccc(CNCc2cccc(C)c2)cc1,10,13,12,3670,11,-36,-1.2
CCC(c1nnnn1CS(=O)(=O)c1ccc(C)cc1)N1CCC(C(N)=O)CC1 (stereo not drawn),3,-8,-15,3076,-8,3,0.3
Cc1cc(C(=O)NC(C)CCC(C)C)c2ccccc2n1 (stereo not drawn),12,8,8,4654,2,-19,4.0
CCc1c(C)sc(NC(=S)N2CCN(C(=O)C3CCCO3)CC2)c1C(=O)OC (stereo not drawn),-6,2,-3,51235*,-1,2,1.3
COc1cc(O)c(C(CC(=O)N2CCCC(C)C2)c2ccc(N(C)C)cc2)c(OC)c1 (stereo not drawn),2,5,4,4006,4,-19,6.2
O=S(=O)(c1ccccc1)c1cnc(-c2ccccc2)nc1N1CCCC1,40,-2,4,3316,0,-27,1.4
Cc1c(C#N)c(NC(=O)CCl)n(Cc2ccccc2)c1C,-2,18,23,4078,4,-24,21
CCn1c(SCC(=O)OC2CCCCC2)nnc1-c1ccncc1,0,2,6,7147,1,-15,6.2
CSc1nnc(SCC(=O)NC(=O)c2ccccc2)s1,2,0,-1,6714,3,-33,2.6
Cc1ccc(C)c(NC(=O)c2cccc(Oc3ccc([N+](=O)[O-])cc3Cl)c2)c1,-9,2,2,2057,-4,-26,-2.2
CCCN(CCC)C(=O)C[n+]1cccc(/C=N/O)c1,x,x,x,2183,0,-36,x
O=C(NC1CC2CCCC(C1)N2Cc1cccs1)c1ccc([N+](=O)[O-])cc1 (stereo not drawn),3,4,7,x,4,x,0.1
O=C(c1ccc(CN2CCc3ccccc3C2)cc1)N1CCN(c2ccc(F)cc2)CC1,3,-1,0,2717,-1,-4,-0.6
COCCN(CC(=O)NCc1ccc(F)cc1)C(=O)CCC(=O)Nc1ccccn1,5,x,x,3774,-1,-11,6.0
CCCCCC(=O)Nc1ccc(C2C(=O)c3ccccc3C2=O)cc1,-4,3,8,3679,1,-7,2.3
Cc1nccn1C(c1ccccc1)c1ccccc1,11,11,1,5154,-6,-7,-0.9
CC(Cc1cccs1)NC(=S)Nc1ccccc1 (stereo not drawn),-5,10,7,1985,1,-34,3.4
COc1ccc(/C(C)=N/NC(=S)Nc2cc(C)ccc2C)cc1,x,x,x,3242,3,-21,x
C=CCOC(=O)C1=C(C)NC(SCC)=C(C#N)C1c1ccc(Cl)cc1 (stereo not drawn),28,-9,1,3603,6,2,-8.6
COc1ccc(NC(=O)N(C)CC2Oc3c(NC(=O)Nc4ccc(C(F)(F)F)cc4)cccc3C(=O)N(C(C)CO)CC2C)cc1 (stereo not drawn),-3,7,11,x,x,x,-6.3
COc1ccc(-c2cc(=O)oc3c(O)c(O)ccc23)cc1,-23,6,-6,3585,-9,-23,2.9
O=C1NC(c2ccncc2)Nc2ccccc21 (stereo not drawn),-2,x,x,2381,-11,-24,-1.1
N#CC(=C1C(=O)Nc2ccc(Br)cc21)c1ccccn1,-10,4,2,x,x,x,6.0
COc1cccc2sc(N(CCN(C)C)C(=O)c3ccc4c(c3)CCCC4)nc12,-16,19,11,6559,-5,-10,-5.0
CCOc1ccc(NC(=O)CN(C)C(=O)c2c(C)nn(Cc3ccccc3Cl)c2C)cc1OCC,5,2,1,3008,x,-5,1.3
COc1ccc(/C(N)=N/OC(=O)CC2CCCCC2)cc1OC,3,14,0,6270,1,-34,3.8
Cc1csc(SCC(=O)NCc2cccc(Cl)c2)n1,4,18,8,4334,9,2,3.1
Cc1cccc(-c2noc(-c3ccccc3C(=O)NCC3CCCO3)n2)c1 (stereo not drawn),5,x,x,3724,-4,-27,2.1
CCN(CC)CCCN1C(=O)C(=O)/C(=C(/O)c2cc(C)ccc2C)C1c1cccnc1 (stereo not drawn),-1,x,x,3575,1,-12,0.1
CC(C)C[C@H](NC(=O)c1[nH]cnc1C(=O)N[C@@H](C)C(=O)OC(C)(C)C)C(=O)OC(C)(C)C,x,x,x,4064,12,-15,x
COc1ccc2c(C)c(CC(=O)N3CCN(C(=O)C4COc5ccccc5O4)CC3)c(=O)oc2c1 (stereo not drawn),7,11,3,5090,8,5,1.4
CSc1ccc(Cl)c(C(=O)OCC(=O)N2CCOCC2)c1,-1,20,10,3357,5,-8,-12
O=C(CN1C(=O)NC2(CCCC2)C1=O)Nc1ccc(Cl)c(C(F)(F)F)c1,-8,-1,1,5710,2,-10,4.9
COc1ccc(C(C)NC(=O)c2ccccc2Br)cc1OC (stereo not drawn),13,2,-4,2799,14,-14,8.5
CC(NC(=O)COC(=O)c1cc([N+](=O)[O-])ccc1N1CCOCC1)c1ccc(F)cc1 (stereo not drawn),-2,6,6,5746,6,-15,1.7
Cc1cccc(/C=C/c2onc(C)c2S(=O)(=O)N2CCC(C(=O)NC(C)C)CC2)c1,-1,x,x,6184,-9,-24,-0.2
C[C@@]12CCC=C[C@H]1[C@H](c1ccc(F)c(/C=C/c3ccccc3)c1)N(Cc1ccccc1)C2=O,x,x,x,2726,-6,-9,x
c1ccc(CN2CCN(Cc3cn4cccnc4n3)CC2)cc1,4,8,2,4620,-1,-16,7.3
COCC1CCCCN1C(=O)c1ccc2oc(CCc3ccccc3)nc2c1 (stereo not drawn),2,-4,-4,4456,-7,-13,7.6
CC(=O)N1C=CN(C(C)=O)C(c2cn(C)c3ccccc23)C1c1cn(C)c2ccccc12 (stereo not drawn),-1,x,x,5009,x,-22,-0.4
CCC(C)(C)n1nnnc1CN1CCN(c2nc3ccc(C)cc3cc2C#N)CC1,-1,-1,15,9705,1,-13,0.5
COc1ccc(CCNC(=O)COc2ccc([N+](=O)[O-])cc2)cc1,10,5,0,4674,-13,-24,4.9
O=C(O)C1CC(=O)N(Cc2ccc(F)cc2)C1 (stereo not drawn),-5,x,x,2936,x,-8,-3.1
Cc1cccc(C)c1NC(=O)CSc1nnc(NC(=O)c2ccccc2C(=O)O)s1,9,9,2,4074,-6,-17,0.6
CCOC(=O)c1cc(C(O)(C(F)(F)F)C(F)(F)F)c(/N=C/N(C)C)o1,x,x,x,10857,-11,-15,x
CCN(Cc1cc2ccccc2[nH]c1=O)C(=O)C(C)C,2,x,x,3098,8,0,0.5
NC(=O)C1CN(C(=O)c2cccc(S(=O)(=O)N3CCc4ccccc43)c2)c2ccccc2O1 (stereo not drawn),-6,-5,-3,6509,x,-6,0.4
S=C(NCCc1ccccc1)NN=Cc1ccccc1Cl,-10,0,3,x,x,x,6.5
O=C(COC(=O)c1ccccc1Cl)NCCC1=CCCCC1,2,2,2,3409,5,-50,5.3
CCOC(=O)C1CCN(CC(=O)Nc2c(C(=O)OC)[nH]c3cccc(Cl)c23)CC1,-3,2,-6,15669,0,1,3.2
Cc1c(N=C2SCC(=O)N2c2c(C)n(C)n(-c3ccccc3)c2=O)c(=O)n(-c2ccccc2)n1C,2,10,-1,6802,2,4,0.3
